Biofilm kill mix = mixture kills Candida albicans biofilm cells; C. albicans biofilm persisters + clotrimazole, fluorescence viability; primary screen in compound mixtures of four per well; AID 1242; 0.02% of 120,000 active; inhibition, % at 7.6 µM;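 active = inhibition above 30.3% in the primary screen of four-compound pools, then above 30% when the compound was retested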;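 also: compounds exposed to preformed 24 h biofilms for 48 h; the number belongs to the whole pool; some results filed as inactive read as strong as hits; inactives centre near 12; 0% = biofilm with clotrimazole alone and 100% = kill control; retested singly at about 60 µM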
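Probe or stimulus – Clotrimazole 50 µg/mL co-treatment · System – C. albicans biofilms · Schedule – 24 h biofilm formation, then 48 h compound exposure, 37 °C · Evaluation – percent inhibition of biofilm viability · Technique – 2-h Alamar Blue fluorescence, 535/590 nm excitation/emission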
Numbers without * were called inactive.

Structure,Biofilm kill mix
Cc1cc([N+](=O)[O-])nn1CCCC(=O)Nc1cccc(Cl)c1Cl,16
O=C(O)COc1ccccc1/C=N/NC(=O)c1cccc(S(=O)(=O)N2CCOCC2)c1,4
CC(=O)Nc1ccc(C(=O)NNC(=O)Cc2ccccc2)cc1,6
CCc1cc2c3c(c1)C1(C(=O)N3C(C)(C)C=C2C)C(C#N)=C(N)Oc2[nH]c(=O)[nH]c(=O)c21 (stereo not given),25
O=C(NNC(=O)c1cccs1)c1ccc(S(=O)(=O)N2CCCCC2)cc1,13
Cc1cnc(NC(=O)c2ccccn2)s1,12
CC1CCCN(CCCOc2ccc(Br)cc2Cl)C1 (stereo not given),4
Cc1nnc(C)n1N,4
O=C(N1CCCCCC1)n1c(Cc2ccccc2)nc2ccccc21,9
Cn1cnnc1SC1c2cccc3cccc(c23)C1NS(=O)(=O)c1ccc(Cl)cc1 (stereo not given),11
CCOC(=O)c1c(-c2ccccc2)csc1NC(=O)CSc1nncs1,8
O=C(Cn1nnc(-c2ccc(F)cc2)n1)OCC(=O)c1ccccc1,15
CCCCCCc1cc2cc(C(=O)Nc3ccccc3OC)c(=O)oc2cc1O,-2
C/C(=N/NC(=O)c1ccco1)c1ccc(NC(=O)c2ccc(F)cc2)cc1,3
Cc1ccc(NC(=O)c2sc(N)nc2-c2ccccc2)cc1C,7

Part of the list above, as labelled records.
Cc1cc([N+](=O)[O-])nn1CCCC(=O)Nc1cccc(Cl)c1Cl
  Biofilm kill mix: 16
O=C(O)COc1ccccc1/C=N/NC(=O)c1cccc(S(=O)(=O)N2CCOCC2)c1
  Biofilm kill mix: 4
CC(=O)Nc1ccc(C(=O)NNC(=O)Cc2ccccc2)cc1
  Biofilm kill mix: 6
CCc1cc2c3c(c1)C1(C(=O)N3C(C)(C)C=C2C)C(C#N)=C(N)Oc2[nH]c(=O)[nH]c(=O)c21 (stereo not given)
  Biofilm kill mix: 25

(further entries)
Structure,Biofilm kill mix
Cc1ccc(Cl)cc1NC(=O)COC(=O)C1CC1,8
CC1=CC(C)(C)n2c(O)c(N=NC(N)=S)c3cccc1c32,8
CCN(c1ccccc1)S(=O)(=O)c1cc(NC(=O)CSc2n[nH]c(=O)[nH]c2=O)ccc1Cl,1
Cc1ccc(CN2CCSc3sccc3C2=O)cc1,16
COc1ccccc1CNC(=O)C(NS(=O)(=O)c1cccc2nsnc12)C(C)C (stereo not given),17
CN(C)/C=C1\Oc2ccc3ccccc3c2C1=O,19
O=C(NC(Cc1ccccc1)C(=O)O)/C(=C/c1ccc(F)cc1)NC(=O)c1ccccc1 (stereo not given),14
Cc1ccc(NC(=O)c2cc(N3C(=O)C=CC3=O)ccc2Cl)cc1C,15
CC(C)C(OC(=O)c1cccs1)C(=O)NC1CCCCC1 (stereo not given),14
Clc1ccc2nc(CSc3ncn[nH]3)cn2c1,-25
CC(=O)c1c(C)[nH]c(C(=O)N(C)C(c2ccccc2)c2ccccc2)c1C,6
COCCNC(=O)C(OC(=O)c1cccs1)c1ccc(F)cc1 (stereo not given),8
COc1ccc(CCNC(=O)COC(=O)/C=C/c2cccs2)cc1OC,-12
CC(=O)N1CCC(=NNc2ccc(S(N)(=O)=O)cc2[N+](=O)[O-])CC1,22
Cc1ccccc1NC(=O)NC1(C(=O)N2CCCC2)CCCCC1,53
CC(C)(C)NC(=O)COC(=O)c1ccc(F)cc1Cl,15
O=C1CC(N2CCC(O)(c3ccc(Br)cc3)CC2)C(=O)N1c1ccc(Cl)cc1 (stereo not given),15
Cc1nn(-c2ccccc2)c(Cl)c1/C=C1/C(=N)N2N=C(C(C)C)SC2=NC1=O,6
CCOC(=O)c1ccc2ncc(C(=O)OCC)c(Nc3ccc(N4CCOCC4)cc3)c2c1,4
CCc1ccc(C(=O)COC(=O)c2cc([N+](=O)[O-])ccc2NCCO)cc1,15
CCOC(=O)CSc1cc(-c2ccccc2)nc2ncnn12,5
Cn1cc(C(=O)N/N=C/c2ccc([N+](=O)[O-])cc2)c2ccccc21,22
CCCC(=O)OC/C(O)=C(\C#N)c1nc2ccccc2[nH]1,8
CCCNC(=O)/C(=C/c1cn(S(=O)(=O)N(C)C)c2ccccc12)NC(=O)c1ccc(OC)cc1,21
CC(=O)[C@@]1(O)CC[C@H]2[C@@H]3C[C@H](C)C4=CC(=O)CC[C@]4(C)[C@H]3CC[C@@]21C,15
Cc1cccc(C(=O)N(Cc2nc3ccccc3c(=O)[nH]2)C2CCCC2)c1,20
CC(=O)Nc1ccccc1-c1nnn(CC(=O)Nc2ccc3c(c2)OCCO3)n1,-3
O=C1CN(C(=O)CNCc2cccc(Cl)c2)c2ccccc2N1,7
O=C(NCc1cccs1)c1ccc(Cl)c(S(=O)(=O)N2CCCC2)c1,13
COc1ccc2[nH]c(CN3CCN(CCC(C)C)C(CCO)C3)c(C)c2c1 (stereo not given),17
Cc1ccc(S(=O)(=O)N2CCOCC2)cc1C(=O)OC1CCCCC1=O (stereo not given),20
CN(C)C(=O)C1C2NC(=S)N(c3ccc(Cl)cc3)C1(C)Oc1ccc(Cl)cc12 (stereo not given),2
Cc1cccc(C)c1OCCNC(=O)c1ccc2ccccc2n1,1
COc1cc(C(Nc2ccccn2)c2c(NC(=O)c3ccco3)sc(C)c2C)cc(OC)c1OC (stereo not given),17
O=C(O)c1ccc(/C=N/Nc2ncc(C(F)(F)F)cc2Cl)cc1,19
Cc1ccc(C2(C(F)(F)F)NC(=O)N3N=C4CCCCCN4C3=C2C#N)cc1 (stereo not given),10
NC(=O)CSc1nccn1Cc1ccccc1,5
CCc1cccc(CC)c1NC(=O)C[n+]1cccc(C(N)=O)c1,8
Cc1ccc(C)c2c1cc(C)c1nnc(SCC(=O)N3CCCc4ccccc43)n12,11
Cc1ccc(-c2cc[n+](Cc3ccccc3)cc2)cc1,20
COc1cc(CNCC(C)C)c(Br)cc1OCC(=O)NCc1ccccc1,-9
Cc1cc(C)n2nc(C(=O)NNC(=O)c3ccccc3)nc2n1,9
Cc1ccc(NC(=O)COC(=O)CCc2nc3ccccc3c(=O)[nH]2)cc1Cl,21
O=C(Nc1ccc(O)c2c(=O)cc(-c3cccc(Cl)c3)oc12)c1ccccc1Cl,14
COc1ccc(CC(=S)N2CCOCC2)cc1F,7
CC1(C)CC(=O)C(C=NCCN2CCNCC2)=C(O)C1,10
CCC1(C)CC2(CCCN(CCC(O)(c3ccccc3)c3ccccc3)C2)CCO1 (stereo not given),27
O=C1CCc2ccc(NS(=O)(=O)c3ccc(F)cc3)cc2N1,26
COc1ccc(OCc2nc(C#N)c(NCCCn3ccnc3)o2)cc1,18
CC(NC(=O)Cn1nc(-c2ccccc2)ccc1=O)c1ccccc1 (stereo not given),7
COc1ccccc1N1CCN(C(=O)CN(C)S(=O)(=O)c2cc(C)ccc2OC)CC1,7
S=C(NC1CCCC1)NC1CC1,7
CCCNC(=O)c1cccc(COc2ccccc2OC)c1,11
CCc1ccc(NC(=O)c2c(C(=O)Nc3ccccc3)sc3nc(C)cc(=O)n23)cc1,3
COC(=O)c1ccccc1NC(=O)CSc1nnc(-c2cccnc2)n1N,12
COc1ccc(-n2cccc2C=O)cc1,21
Cc1cc(C)c(S(=O)(=O)N2CCCOC2CNC(=O)C(=O)NCc2ccccn2)c(C)c1 (stereo not given),6
O=C(COC(=O)[C@@H]1CCCN1C(=O)c1cccs1)Nc1ccc(F)cc1[N+](=O)[O-],9
O=C(COC(=O)c1ccc(Br)o1)NCCc1ccccc1,15
O=C(COC(=O)Cc1ccccc1[N+](=O)[O-])NCC1CCCCC1,9

Copied from the list:
Result for O=C(COC(=O)[C@@H]1CCCN1C(=O)c1cccs1)Nc1ccc(F)cc1[N+](=O)[O-] in Biofilm kill mix: 9
Result for COc1ccc(-n2cccc2C=O)cc1 in Biofilm kill mix: 21

(cont.)
Structure,Biofilm kill mix
Nc1cc(Cl)ccc1C(=O)OCC(=O)NC1CCCCC1,10
O=C1NC(=Nc2ccc(Cl)cc2)/C(=C/c2ccco2)S1,14
COc1ccc(C)cc1NC(=O)C(OC(=O)c1cc(C)oc1C)c1ccccc1 (stereo not given),17
CC(C)(C)C(=O)NC1(C(F)(F)F)N=C2SCCN2C1=O (stereo not given),16
O=C(Nc1nc2c(F)cc(F)cc2s1)C1CC(=O)N(Cc2ccco2)C1 (stereo not given),3
O=C(N/N=C/c1ccc([N+](=O)[O-])s1)c1cccc(Br)c1,13
O=S(=O)(CC(c1ccccc1)N1CCCCC1)c1ccc(Cl)cc1 (stereo not given),5
O=C(COc1ccc(Cl)cc1Cl)Nc1ccc(S(=O)(=O)NC2=NCCCCC2)cc1,9
COc1cc(S(=O)(=O)N2CCCCC2)c(OC)cc1Br,3
Brc1ccccc1-n1nnc(-c2nccs2)n1,21
O=C(NC(=S)Nc1ccc2c(c1)OCCO2)c1ccco1,23
Nc1nnc(CSCc2ccc(Cl)cc2)s1,8
COc1cc2cnc(Cl)nc2cc1OC,10
COc1ccc(N2C(=O)/C(=C\c3ccco3)N=C2SCC(=O)N(C(C)C)C(C)C)cc1Cl,-2
Cc1nccn1CCN(C)Cc1cn(Cc2ccccc2)nc1-c1ccc2c(c1)OCO2,12
CNC(=O)COc1ncnc2scc(-c3ccc(F)cc3)c12,13
O=C1CC(SC2=NCCS2)C(=O)N1c1ccc(Cl)cc1 (stereo not given),9
CCCNC(=O)COC(=O)/C=C/c1ccc(C)o1,10
Cc1ccc(C(=O)N/N=C\c2cc3c(cc2Br)OCO3)s1,18
COc1ccc2cc(C(=O)C3CCCN(Cc4cccc(C)n4)C3)ccc2c1 (stereo not given),13
COc1ccc(NC(=O)c2cc([N+](=O)[O-])ccc2N2CCCC2)cc1,18
CCCCCC(=O)NC(Nc1ccc(S(N)(=O)=O)cc1)C(Cl)(Cl)Cl (stereo not given),8
O=C(Cc1cccc2ccccc12)Nc1cccnc1,15
Cn1ccnc1C(=O)c1ccc(Cl)c(S(=O)(=O)N2CCOCC2)c1,13
O=C(COc1ccccc1[N+](=O)[O-])N1CCN(S(=O)(=O)c2ccccc2)CC1,-2
Cn1c(N)c(C(=O)COC(=O)COc2ccc(C#N)cc2)c(=O)n(C)c1=O,-3
CCN(C(=O)Cn1cc(C(F)(F)F)ccc1=O)c1c(N)n(Cc2ccccc2)c(=O)[nH]c1=O,16
CCc1ccc(C(=O)COC(=O)C(CCSC)NC(=O)c2ccccc2)cc1 (stereo not given),16
COc1cccc(C(=O)n2ccc(-c3cccs3)n2)c1,12
CC(=O)Nc1nnc(SCc2cc(=O)c(OC(=O)c3ccccc3)co2)s1,6

Quoted at random: 6 records from the list
Structure,Biofilm kill mix
CC1(C)CC(=O)C(C=NCCN2CCNCC2)=C(O)C1,10
Cc1cnc(NC(=O)c2ccccn2)s1,12
CC(=O)Nc1nnc(SCc2cc(=O)c(OC(=O)c3ccccc3)co2)s1,6
Cn1ccnc1C(=O)c1ccc(Cl)c(S(=O)(=O)N2CCOCC2)c1,13
Cn1c(N)c(C(=O)COC(=O)COc2ccc(C#N)cc2)c(=O)n(C)c1=O,-3
NC(=O)CSc1nccn1Cc1ccccc1,5

Going on with the list.
Structure,Biofilm kill mix
NC(=O)c1ccc(Sc2nnc(-c3cccs3)n2CC2CCCO2)c([N+](=O)[O-])c1 (stereo not given),8
Cc1ccc(NC(=O)c2cnccn2)cc1,9
c1ccc(-c2ccccc2OCCCN2CCCCC2)cc1,14
COC(=O)c1cnc(NNS(=O)(=O)c2ccc(Cl)cc2)nc1C(F)(F)F,14
CN(C(=O)CSc1nnc2ccccn12)c1c(N)n(Cc2ccccc2)c(=O)[nH]c1=O,17
O=C(CCNC(=O)c1ccccc1Cl)NCC12CC3CC(CC(C3)C1)C2,10
COc1ccc(CNC(=O)C2CCN(S(=O)(=O)c3cccc4cccnc34)CC2)cc1,11
CC1=NN(c2ccc(S(=O)(=O)O)cc2C)C(=O)C1,4
O=C(c1ccccc1)C1CCN(c2ncccc2[N+](=O)[O-])CC1,20
CCc1ccc(C2c3[nH]c4ccccc4c3CCN2C(=O)CNC(N)=O)cc1 (stereo not given),13
CCN(CC)C(=O)Oc1ccc2ccccc2c1Cl,16
C=CCn1c(O)c(N=NC(=S)Nc2ccccc2F)c2cc(S(=O)(=O)N3CCOCC3)ccc21,16
Cc1c(Cl)cnc(NC(=O)COC(=O)c2ccc3ncsc3c2)c1Cl,10
O=[N+]([O-])c1ccc(Cl)cc1N1CCCC1,2
CC(C)(CO)NS(=O)(=O)c1ccc2c(c1)C(=NO)c1cc(S(=O)(=O)NC(C)(C)CO)ccc1-2,50
CCC(=Nc1ccccc1)C1=C(O)CC(C)(C)CC1=O,14
N#CCCn1cc(/C=C/C(=O)O)c(-c2ccc(F)cc2)n1,4
COc1ccc(-c2n(CC(=O)OC3CC(C)CCC3C(C)C)c3ccccc3[n+]2C)cc1 (stereo not given),10
COC(=O)C1=C(C(=O)OC)[C@@H]2N(C)c3ccc(OC)cc3[C@@]23C[C@@H](C(=O)OC)N(S(=O)(=O)c2ccc(OC)cc2)C3=N1,0
COc1cc(CNCc2ccccc2C(F)(F)F)cc(OC)c1,-3
Cn1c(SCC(=O)c2cc(Cl)c(Cl)s2)nnc1-c1ccco1,6

Screening results from PubChem BioAssay.

A portion of the library; count on the stated rates, not on these rows.
